Bioassay records as filed in PubChem.
Yeast UUG start – modulators of start codon recognition fidelity in yeast; actives 0.13% (n = 350,000); S. cerevisiae UUG-firefly luciferase reporter, luminescence/redox ratio; activity score, % at 18.7 µM;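 active = replicate mean at a twofold rise or more, about +100% in these data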;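 note: firefly luciferase made from a UUG start codon reports start codon fidelity; reporter light over untreated wells divided by growth signal over untreated wells; some hits fall short of that in this replicate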
MT1-MMP act inh – blocks activation of human MT1-MMP; actives 0.061% (n = 360,000); HT1080 RFP-PRO-GFP cells, GFP/RFP ratio fluorescence, overnight; percent of plate control window, DMSO zero; GFP/RFP ratio change, % at 20 µM; AID 651647;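 active = GFP/RFP ratio change of at least 30% with cell ATP level not reduced by more than half and red fluorescence within 50% of control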; note: strong numbers were not always called active
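Test system: HT1080 RFP-PRO-GFP cells; Benchmarks: DMSO and RFP-L50D-GFP cell wells; Timing: cells overnight before dosing, compound overnight, 37 °C, 5% CO2; Compound: one 20 µM compound dose with 1% DMSO; Read-out: GFP/RFP fluorescence ratio.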
Env fusion inh – inhibitors of HIV Env-mediated cell fusion; HeLa-JRFL Env/CEM21 cell fusion, luciferase; inhibition, % at 12.3 µM; actives 1.1% (n = 360,000);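 active = mean replicate inhibition score of at least 50 and every replicate individually at or above 50; inconclusive = only one of the two criteria met; inactive = mean below 50 and not all replicates reaching 50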;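 note: 0% = plate neutral controls and 100% = maraviroc near 300 nM; one replicate is shown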
eIF4H FP inh – inhibitors of RNA binding by human eIF4H. eIF4H fluorescence polarization binding assay. inhibition, % at 35 µM. actives 0.94% (n = 290,000). AID 2012;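 active = 50% or more with normal probe brightness, or confirmed in later tests; inconclusive = above 50% with abnormal brightness, or retests that disagree; inactive = below 50% or failed in later tests; about a fifth of its hits are not listed in these tables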;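 note: calls also rest on retests at 20 µM and on dose response follow-up; 0% = protein and probe with vehicle and 100% = probe without protein; strong numbers were not always called active; many hits fall short of the cut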
CSC inhib – cancer stem cell inhibition; cancer stem cell-like cells viability, luminescence; inhibition, % at 7.5 µM; actives 1.1% (n = 300,000);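 active = mean at 75% or more and at least half the replicates too; inconclusive = mean and replicates disagree; tested in HMLE shEcad cells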;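 note: 0% = median of negative and 100% = median of positive control wells; the first replicate is given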
Rce1 inhib – yeast Ras-converting enzyme inhibition; Q03530; yeast membranes, quenched prenylated peptide cleavage fluorescence; calls only; AID 2563; actives 0.27% (n = 290,000);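 active = fall in fluorescence gain of 50% or more versus controls, with final raw signal at or below 3038400; inconclusive = same 50% fall but final raw signal above 3038400; inactive = fall in fluorescence gain under 50%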;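 note: plate controls were neutral control wells for no effect and wells lacking membranes for full effect; tested at 10 µM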
Target sequence (Q03530 whole entry, looked up): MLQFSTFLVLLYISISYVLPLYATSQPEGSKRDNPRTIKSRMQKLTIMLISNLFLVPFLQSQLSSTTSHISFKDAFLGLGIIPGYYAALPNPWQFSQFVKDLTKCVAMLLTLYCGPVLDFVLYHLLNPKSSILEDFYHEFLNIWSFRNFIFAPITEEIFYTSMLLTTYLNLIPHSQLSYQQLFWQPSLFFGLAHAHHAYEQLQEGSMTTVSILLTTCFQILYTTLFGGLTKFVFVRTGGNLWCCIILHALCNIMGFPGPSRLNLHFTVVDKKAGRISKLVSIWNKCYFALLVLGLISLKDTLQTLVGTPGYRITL
PABP FP inh – PABP-poly(A) binding inhibition; AID 2014; PABP-poly(A) RNA binding, fluorescence polarization; P11940; actives 1% (n = 290,000); inhibition, % at 35 µM;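 active = 50% or more with normal probe brightness, or confirmed in later tests; inconclusive = above 50% with abnormal brightness, or retests that disagree; inactive = below 50% or failed in later tests; about a fifth of its hits are not listed in these tables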;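 note: calls also rest on retests at 20 µM and on dose response follow-up; controls were probe without protein and protein plus probe with vehicle; some compounds called inactive have numbers as strong as hits; many hits fall short of the cut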
eIF4H FP inh retest – also measured in eIF4H FP inh; calls as there; inhibition, %; compound at 20 µM; confirmation average;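 mean of two retest wells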
PABP FP inh retest – also measured in PABP FP inh; calls as there; inhibition, %; compound at 20 µM; confirmation repeats;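 mean of two retest wells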
MT1-MMP act inh RFP – recorded beside MT1-MMP act inh, whose call it bears; RFP signal change, %; measured here: RFP expression control read;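 0 = vehicle wells; hits needed this value within 50% of zero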
* marks the source's active call; other numbers are inactive results; i = inactive; u = inconclusive; x = no result given; & = joins results of further samples. These rows are one share of the data; count on the stated rates, not on these rows.

SMILES | Yeast UUG start | MT1-MMP act inh | MT1-MMP act inh RFP | Env fusion inh | eIF4H FP inh | CSC inhib | Rce1 inhib | PABP FP inh | others
O=S(=O)(Oc1ccccc1-c1ccccc1)c1ccccc1 | -12 | -5 | -4 | -8 | x | x | x | x
C[C@@H]1CN([C@@H](C)CO)C(=O)CCCn2nncc2CO[C@H]1CN(C)S(=O)(=O)c1ccc(F)cc1 | -16&-11&10 | 1 | 6 | 21 | x | x | x | x
CCc1noc(C)c1C(=O)N1CCC(CCC(=O)Nc2cccc(OC)c2)CC1 | -5 | -2 | -6 | 5 | -8 | -21 | i | 5
CCOc1ccc(C(=O)NC(C(=O)NCC(c2cccs2)N(C)C)C(C)C)cc1 (configuration not stated) | -18 | -4 | 0 | 3 | x | -8 | x | x
CC(=O)c1c(C(C)=O)c(C)n(-c2nc(-c3ccc(Br)cc3)c(C)s2)c1C | -14 | 1 | -13 | -38 | -4 | -11 | i | -4
CCCCNC(=O)Cn1cnc2sc(C(=O)OCC)c(C)c2c1=O | -3 | -6 | -3 | 11 | -4 | 0 | i | -6
Cc1c(C(=O)c2ccc(Cl)c([N+](=O)[O-])c2)c2ccccn2c1CCC#N | x | -2 | -6 | x | 40 | -3 | i | -8
CCOC(=O)C(NC(=O)CCl)(Nc1sc(C)c(CC)c1C#N)C(F)(F)F (configuration not stated) | x | -4 | -2 | -2 | 3 | 2 | i | 3
Cc1cc[n+](Cc2ccc([N+](=O)[O-])cc2)cc1 | x | 4 | 1 | -4 | -7 | -15 | i | 3
Cc1ccc(CCNC(=O)CN2C(=O)COc3ccccc32)cc1 | -16 | -1 | 0 | 1 | -5 | -5 | i | 7
CCN(CC(=O)Nc1c(F)cccc1F)C(=O)c1ccc(=O)n(Cc2ccccc2)n1 | -10 | -6 | -6 | -5 | -4 | -6 | i | -1
O=C(Nc1ccccc1O)c1c(O)c2c([nH]c1=O)CCCC2 | -35 | -2 | -4 | -90 | -16 | x | i | -3
Cc1nc(N)nc(COc2ccccc2)n1 | x | 1 | 4 | -20 | 1 | -7 | i | -10
CN(C)c1cc[n+](CC(=O)c2ccc(Br)cc2)cc1 | x | -4 | -9 | -8 | -3 | 1 | i | -4
COc1ccc(S(=O)(=O)N/N=C\c2ccccc2F)cc1 | 4 | 2 | -1 | x | -4 | -9 | i | -1
COc1ccc2c(c1)c(C(=O)CN1CCN(Cc3ccccc3)CC1)c(C)n2C | 5 | 0 | 6 | 1 | -7 | -4 | i | 3
CC1CCCC(NC(=O)COC(=O)c2ccc3c(c2)OCCO3)C1C (configuration not stated) | -1 | 1 | 3 | x | x | 2 | x | x
O=C1NC2(CCCC2)C(=O)N1CCS(=O)(=O)Oc1ccccc1 | x | 2 | 2 | 0 | 5 | -10 | i | -11
COCCCn1c(C)nnc1-c1cnn(-c2ccccc2)c1N | x | -3 | -4 | -9 | 16 | 2 | i | -10
CC(=O)NS(=O)(=O)c1ccc(NC(=O)CCC2CCCC2)cc1 | 0 | 3 | 6 | x | -9 | 12 | i | 0
Cc1cc(C(=O)CSc2nc3ccccc3c(=O)n2C)c(C)n1Cc1ccc2c(c1)OCO2 | -20 | 2 | -17 | u | 20 | 21 | i | 17
O=C1C2C3C=CC(C3)C2C(=O)N1c1ncn[nH]1 (configuration not stated) | -30 | 2 | -1 | -63 | 24 | -7 | i | -6
COc1cc(/C=N/NC(=O)CCC(=O)Nc2ccc(F)cc2)ccc1O | -14 | 4 | 4 | -3 | 0 | 3 | i | 3
OC(c1ccccc1)C1CN(Cc2ccccc2)CCC1(O)c1ccccc1 (configuration not stated) | -6 | -6 | -4 | x | -3 | -14 | i | 1
Cc1ccc(C(=O)NC2CCCCCCC2)c(Cl)c1 | -64 | 4 | -2 | -22 | -6 | -10 | i | 6
SMILES | Yeast UUG start | MT1-MMP act inh | MT1-MMP act inh RFP | Env fusion inh | eIF4H FP inh | CSC inhib | Rce1 inhib | PABP FP inh | others
O=C1CCCCN1CCCC(=O)N1CCCC(Nc2ccccc2)C1 (configuration not stated) | 2 | x | x | -1 | -8 | -6 | i | -11
CN(CC(=O)NCCc1ccccc1)S(=O)(=O)c1ccc(Br)cc1 | -28 | 4 | 8 | -12 | -4 | -20 | i | -1
O=C(c1ccc(NS(=O)(=O)c2ccc(F)cc2)cc1)N1CCCCCC1 | 22 | 2 | -3 | 0 | x | -11 | i | x
Cc1cccc(C)c1NS(=O)(=O)c1ccc(OCCNS(C)(=O)=O)cc1 | x | -3 | -2 | 21 | -9 | -1 | i | 11
O=C(COc1ccc(Cl)cc1Cl)N1CCCCCC1 | 26 | -3 | -1 | -227 | -5 | -12 | i | -1
O=C(Nc1nnc(-c2cc(Cl)ccc2Cl)o1)c1ccco1 | 5 | 1 | -1 | -20 | x | -4 | i | x
COc1ccc(CCNC(=O)c2ccc(CN3CCC(Cc4ccccc4)CC3)cc2)cc1 | x | 3 | -2 | x | -1 | -4 | i | -5
Cc1ccc(NC(=O)N2CCCC2c2cccs2)cc1 (configuration not stated) | x | -1 | -1 | 6 | -8 | 0 | i | -13
CN1CCN(C(=O)c2ccc3c(c2)NC(=O)/C(=C/c2ccccc2)S3)CC1 | -1 | -3 | -7 | 1 | x | 23 | i | x
O=C1C2C3c4ccccc4C(c4ccccc43)C2C(=O)N1CN1CCOCC1 (configuration not stated) | -13 | -3 | 1 | x | -1 | 1 | i | -7
N#Cc1cc2c(nc1SCc1cccnc1)CCCCC2 | 6 | 0 | -4 | x | -23 | 9 | i | -6
Cc1oc(S(=O)(=O)N2CCOCC2)cc1C(=O)Nc1ccc(Cl)cc1 | x | 7 | -10 | -20 | -2 | -6 | i | 11
Nc1nc2c(ncn2[C@@H]2O[C@H](CNCc3ccc(F)c(N4CCOCC4)c3)[C@@H](O)[C@H]2O)c(=O)[nH]1 | 10 | -1 | 2 | -76 | x | x | x | x
CCOc1ccc(N2C(=O)Nc3ccccc3C2(O)C(=O)N2CCN(c3ccccn3)CC2)cc1 (configuration not stated) | -9 | -2 | 3 | -44 | 6 | x | i | 0
Cc1sc2ncnc(Sc3nc4ccccc4s3)c2c1C | x | x | x | x | -4 | -26 | i | -11
CCCNC(=O)NC1CCCc2ccccc21 (configuration not stated) | x | -3 | 7 | 26 | -5 | -4 | x | -4
CCOC(=O)C(C)Sc1nc(-c2ccccc2)nc2ccc(F)cc12 (configuration not stated) | -6 | 1 | 2 | 15 | 2 | 3 | i | 2
CCCCCc1cc(=O)oc2c(C(CCN(CC)CC)c3cc(OC)c(OC)c(OC)c3)c(OC)cc(OC)c12 (configuration not stated) | 14 | 1 | -5 | -8 | -13 | 107* | i | -8
Cc1c(C)c2ccc(OCC(=O)NCCN3CCOCC3)cc2oc1=O | -12 | 2 | 3 | 5 | x | -13 | i | x
CC(=O)c1cccc(NC(=O)C2CC(=O)N(c3ccc4c(c3)OCCO4)C2)c1 (configuration not stated) | -11 | -3 | -5 | -13 | x | -13 | x | x
COc1ccc([C@H]2CC(=O)C=C(c3ccccc3)C2)cc1 | 6 | 7 | 2 | x | x | 3 | x | x
O=C(O)/C=C\c1cn(-c2ccccc2)nc1-c1cc2ccccc2o1 | x | 11 | 0 | 4 | -10 | 11 | i | 12
Cc1cc(NC(=O)/C(C#N)=C/c2ccco2)n(-c2ccccc2)n1 | x | -7 | 10 | 31 | 12 | 5 | i | -5
CCCCOc1ccc(CN(CCO)CCO)cc1[N+](=O)[O-] | x | 3 | -7 | 1 | -7 | 23 | i | 3
Cc1cc(C)nc(Sc2ncnc3c2oc2ccccc23)n1 | -14 | x | x | -6 | 1 | -2 | i | -7
SMILES | Yeast UUG start | MT1-MMP act inh | MT1-MMP act inh RFP | Env fusion inh | eIF4H FP inh | CSC inhib | Rce1 inhib | PABP FP inh | others
CC(=O)NCCNC(=O)C1Cc2c(-c3cccc(NC(C)=O)c3)ccnc2O1 (configuration not stated) | -1 | 2 | 4 | -51 | x | x | x | x
Cc1csc2c(=O)sc(NC(=O)c3ccc(F)cc3)nc12 | 10 | 3 | 1 | 7 | 1 | 9 | i | 9
COc1cccc(CN(C)Cc2c(O)ccc3ccccc23)c1 | -11 | -1 | 6 | 16 | -12 | x | i | 8
CC(O)(c1cccc(F)c1)c1nc(-c2ccoc2)cs1 (configuration not stated) | -10 | 2 | 4 | -26 | x | x | x | x
C=C(C)CSc1nnc(-c2ccc(OC)cc2)n1N | -6 | 3 | 4 | -111 | -1 | -4 | i | 4
O=C(CSc1cn[nH]n1)Nc1cccc(C(F)(F)F)c1 | -22 | 1 | 2 | -19 | -14 | -15 | i | -3
CC(C)c1nnc(-c2ccc(Cl)cc2)c(N(C)C)n1 | 1 | -1 | 2 | -64 | -11 | -4 | i | -2
O=C(O)CSc1nnc(Cc2cccc3ccccc23)n1-c1cc(C(F)(F)F)cc(C(F)(F)F)c1 | -13 | 1 | 4 | 2 | 7 | -12 | i | 8
S=C1NCCc2ccccc2C1c1ccccc1 (configuration not stated) | -33 | -2 | -3 | x | -4 | -14 | i | 8
Cc1cc(OCC(=O)N2CCOCC2)cc2oc(=O)c3ccccc3c12 | -4 | 2 | 1 | x | -6 | -9 | i | -5
CCOc1cc(/C=C2/NC(=O)N(CC(=O)OC)C2=O)ccc1OC | 2 | 3 | -3 | 3 | -6 | 11 | i | 71 | eIF4H FP inh retest=42;PABP FP inh retest=19
CC(CNC(=O)COc1ccccc1)OC(=O)Nc1cccc(Cl)c1 (configuration not stated) | x | -7 | -2 | -18 | -4 | 6 | i | 11
O=C(O)CCS(=O)(=O)Cc1ccccc1Cl | -17 | -1 | 1 | x | 10 | -3 | i | 3

As a working copy, some entries already given.
SMILES | Yeast UUG start | MT1-MMP act inh | MT1-MMP act inh RFP | Env fusion inh | eIF4H FP inh | CSC inhib | Rce1 inhib | PABP FP inh | others
O=C(O)CSc1nnc(Cc2cccc3ccccc23)n1-c1cc(C(F)(F)F)cc(C(F)(F)F)c1 | -13 | 1 | 4 | 2 | 7 | -12 | i | 8
S=C1NCCc2ccccc2C1c1ccccc1 (configuration not stated) | -33 | -2 | -3 | x | -4 | -14 | i | 8
Cc1cc(OCC(=O)N2CCOCC2)cc2oc(=O)c3ccccc3c12 | -4 | 2 | 1 | x | -6 | -9 | i | -5
CCOc1cc(/C=C2/NC(=O)N(CC(=O)OC)C2=O)ccc1OC | 2 | 3 | -3 | 3 | -6 | 11 | i | 71 | eIF4H FP inh retest=42;PABP FP inh retest=19
CC(CNC(=O)COc1ccccc1)OC(=O)Nc1cccc(Cl)c1 (configuration not stated) | x | -7 | -2 | -18 | -4 | 6 | i | 11
O=C(O)CCS(=O)(=O)Cc1ccccc1Cl | -17 | -1 | 1 | x | 10 | -3 | i | 3

Some of these compounds in order of number of heavy atoms, ascending:
SMILES | Yeast UUG start | MT1-MMP act inh | MT1-MMP act inh RFP | Env fusion inh | eIF4H FP inh | CSC inhib | Rce1 inhib | PABP FP inh | others
Cc1ccc(CCNC(=O)CN2C(=O)COc3ccccc32)cc1 | -16 | -1 | 0 | 1 | -5 | -5 | i | 7
CC(CNC(=O)COc1ccccc1)OC(=O)Nc1cccc(Cl)c1 (configuration not stated) | x | -7 | -2 | -18 | -4 | 6 | i | 11
CCCCCc1cc(=O)oc2c(C(CCN(CC)CC)c3cc(OC)c(OC)c(OC)c3)c(OC)cc(OC)c12 (configuration not stated) | 14 | 1 | -5 | -8 | -13 | 107* | i | -8
